# A647 autofl – qHTS Assay for Spectroscopic Profiling in A647 Spectral Region; Compound fluorescence, A647 channel (570/671 nm), Tris buffer; 59,000 tested, under 10 active; max dye-equivalent concentration, M; active means above 1 µM dye equivalent; inconclusive means 0.1 to 1 µM; inactive means 0.1 µM or less;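 note: values scaled relative to a standard on each plate; highest value over a series up to 38 µM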
#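 Each compound's intrinsic fluorescence at 570 nm excitation and 671 nm emission is measured across its concentration series in 100 mM Tris, pH 8.0, after 15 min at room temperature, and reported relative to an A647 curve.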
# TSHR agonist – qHTS Assay for Agonists of the Thyroid Stimulating Hormone Receptor; HEK293-CNG-TSHR cells (CNG channel as cAMP sensor), membrane potential dye, cAMP; 73,000 compounds, 0.48% hits; AID 926, 2007; Potency, µM (doses to about 57.1 µM), inactives show at the top dose activation, most hits filed as activators; Thyrotropin receptor (Homo sapiens), P16473; active = well fitted activation curve of enough size with the parental cells flat; inconclusive = any curve in the parental cells; inactive = parental cells flat and receptor cells flat or falling; note: potency is the fitted concentration of half-maximal effect; % of control where 0% means no effect; weak receptor curves with flat parental cells got no call and are not listed
# Target sequence (P16473 whole entry, looked up): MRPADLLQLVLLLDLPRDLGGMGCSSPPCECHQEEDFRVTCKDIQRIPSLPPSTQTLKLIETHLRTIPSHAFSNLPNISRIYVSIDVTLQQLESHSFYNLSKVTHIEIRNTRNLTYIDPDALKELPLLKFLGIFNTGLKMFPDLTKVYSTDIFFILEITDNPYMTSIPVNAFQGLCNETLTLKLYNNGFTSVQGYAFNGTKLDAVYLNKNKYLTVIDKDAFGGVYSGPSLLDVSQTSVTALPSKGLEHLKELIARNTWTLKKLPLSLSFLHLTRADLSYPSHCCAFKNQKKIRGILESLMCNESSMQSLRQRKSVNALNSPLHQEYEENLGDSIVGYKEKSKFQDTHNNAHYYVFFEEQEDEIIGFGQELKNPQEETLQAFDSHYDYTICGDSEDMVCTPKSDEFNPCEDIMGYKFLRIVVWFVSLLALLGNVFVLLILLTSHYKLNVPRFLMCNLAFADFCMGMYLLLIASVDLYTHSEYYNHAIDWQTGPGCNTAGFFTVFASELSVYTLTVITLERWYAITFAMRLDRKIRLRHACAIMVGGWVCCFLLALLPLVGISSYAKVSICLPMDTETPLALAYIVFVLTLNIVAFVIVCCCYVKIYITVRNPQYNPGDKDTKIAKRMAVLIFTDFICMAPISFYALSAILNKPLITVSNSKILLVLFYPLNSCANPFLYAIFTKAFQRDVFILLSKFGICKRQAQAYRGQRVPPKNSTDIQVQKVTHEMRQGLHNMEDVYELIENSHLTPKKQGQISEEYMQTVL
#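 cAMP rise detected as CNG-channel membrane depolarization by fluorescent dye (emission 590 nm), 30 min after compound, following 60 min dye loading containing 100 uM RO 20-1724 at room temperature. Cells: TSHR/CNG HEK 293, with parental CNG HEK 293 as control.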
# A488 autofl – qHTS Assay for Spectroscopic Profiling in A488 Spectral Region; 59,000 compounds, 0.1% hits; compound autofluorescence, A488 spectral region, dye equivalency; hits give high values; max dye equivalency, M; AID 591, 2007; active = above 10 nM dye equivalent; inconclusive = 1 to 10 nM; inactive = 1 nM or less; about half of its hits are not listed in these tables;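 note: highest value over a series up to 38 µM; compound alone in buffer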
#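 Compounds pin-transferred into 100 mM Tris buffer, pH 8.0, incubated 15 min at room temperature, then imaged with 480 nm excitation/540 nm emission filters. Fluorescence converted to Alexa 488 dye-equivalent concentration via an on-plate six-point A488 standard curve.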
# AID923 – qHTS Assay for Allosteric/Competitive Inhibitors of Caspase-1: Spectroscopic Profiling in AFC Spectral Region | Potency, µM (doses to about 57.5 µM), without a hit: at the top dose fluorescence increase, most hits filed as activators | AID 923, 2007 | 75,000 compounds, 1.1% hits | compound fluorescence, AFC spectral region (405/520 nm); almost no hit is shown here; active = well fitted activation curve with a large enough effect; inconclusive = small, poorly fitted or top-dose-only effect;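 note: potency is the fitted concentration of half-maximal effect; 0% is about no effect; scaled to a free AFC standard on each plate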
#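 Compound autofluorescence profiled at 405 nm ex/520 nm em during kinetic caspase 1 run (50 nM enzyme, 5 uM Ac-WEHD-AFC, HEPES pH 7.5, 10 mM DTT). Titration up to 57 uM; baseline from regression intercept, normalized to AFC standard curve.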
# Resorufin fluor – qHTS Assay for Spectroscopic Profiling in Resorufin Spectral Region. 59,000 compounds, 0.04% hits. Compound fluorescence, resorufin region 547/598 nm, buffer; hits give high values. max dye-equivalent concentration, M; active = above 10 nM dye equivalent; inconclusive = 1 to 10 nM; inactive = 1 nM or less; a few of its hits are not listed in these tables; note: highest value over a series up to 38 µM
#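 Read-out: intrinsic compound fluorescence at ex 547/em 598 nm after 15 min at RT in pH 8.0 Tris (100 mM). Values expressed as resorufin-equivalent concentration from per-plate standard series.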
# Numbers without * were called inactive; i = inactive; ? = inconclusive; . = no result given; & = joins results of further samples; [ ] = another dose, or the depositor's remark.
molecule | A488 autofl | AID923 | A647 autofl | TSHR agonist | Resorufin fluor
COc1ccc(CCN2C(=O)CC(N3CCN(c4ccccn4)CC3)C2=O)cc1OC (centres undefined) | i | 1.1% | 6.6e-09 | 1.3% | i
c1cn(C23CC4CC(CC(C4)C2)C3)cn1 | i | -0.1% | 2.1e-09 | 16.7% | i
CCOc1ccc(C(=O)Nc2cc(C)c3c(=O)oc4ccccc4c3n2)cc1 | . | -2.0% | . | 1.2% | .
O=C(/C=N/O)Nc1ccc(F)cc1 | i | -0.5% | 3.4e-09 | 3.8% | i
CCC1CCC2(CC1)NC(CO)(CO)CO2 (centres undefined) | i | 0.1% | 3.7e-08 | -0.2% | i
NC(Cc1ccccc1)(C(=O)O)C(=O)O | i | 2.5%[11.5 µM] | 1e-09 | -3.1%[11.4 µM] | i
O=C(c1cc(-c2ccc(Cl)c(Cl)c2)on1)N1CCCC1 | . | -4.7% | . | 2.3% | .
Cc1ccc(/C=N/n2c(C)nnc2C)s1 | i | -0.3% | 1.9e-09 | 0.3% | i
Cc1cc(N2C(=O)CC(N3CCN(C(c4ccccc4)c4ccccc4)CC3)C2=O)no1 (centres undefined) | i | 2.5% | 2.91e-08 | -5.7% | i
CCOc1ccc(N(CC(=O)Nc2ccc3c(c2)OCCO3)S(=O)(=O)c2c(C)noc2C)cc1 | . | 2.5% | . | 4.5% | .
CCC(c1nnnn1CS(=O)(=O)c1ccc(C)cc1)N1CCN(c2nc3ccccc3s2)CC1 (centres undefined) | i | 0.6% | 5e-09 | 10.9% | i
CCCNC(=O)c1cc(S(=O)(=O)N2CCc3ccccc32)ccc1F | i | 0.6% | 1e-09 | 16.2% | i
O=C1CCCC=C1[C@@H](O)COCc1ccccc1 | . | 0.8%[11.5 µM] | . | 6.5%[11.4 µM] | .
COCCN(Cc1cc2cc3c(cc2[nH]c1=O)OCO3)C(=O)c1cccs1 | i | -0.8% | 1.1e-08 | -8.0% | i
Cc1ccc2cccc(OCC(=O)NCc3ccco3)c2n1 | i | -0.9% | 1.97e-08 | 9.3% | i
Cn1c(SCc2ccccc2)nnc1-c1ccc2c(c1)OCO2 | i | 1.7% | 1e-09 | 12.4% | i
C[C@@H](CSC(=N)N)C(N)=O | i | 3.3%[11.5 µM] | 1e-09 | -4.4%[11.4 µM] | i
COC(=O)N1CCC2(CCCN(c3ncccn3)C2)CC1 | i | 1.2% | 3.4e-09 | -1.6% | i
CCc1cc2c(NCCC(=O)O)ncnc2s1 | i | 0.3% | 1e-09 | 5.5% | i
c1cncc(CNc2ncncc2-c2ccoc2)c1 | i | 5.1% | 4.5e-08 | 3.6% | i
COC(=O)c1ccc(C2c3c(oc4ccc(F)cc4c3=O)C(=O)N2CCO)cc1 (centres undefined) | i | -0.1% | 1.59e-08 | 0.7% | i
O=C(Nc1ccc(N2CCCCC2)c(Cl)c1)c1cccnc1 | i | -0.3% | 2.33e-08 | -6.7% | i
COc1cc(C2/C(=C(/O)c3ccc(OCC(C)C)cc3)C(=O)C(=O)N2CCN(C)C)ccc1O (centres undefined) | i | -0.8% | 3.2e-09 | 7.0% | i
CC(=O)N1CC2(CC(=O)OC(C)C)CN(C(C)=O)CC(CC(=O)OC(C)C)(C1)C2=O | i | -2.3% | 4.8e-09 | -8.9% | i
CCc1nc(SCc2cccnc2)c2c(=O)n(C)c(=O)n(C)c2n1 | . | -2.6% | . | 7.4%[11.4 µM] | .
CCOc1ccc2nc(SC(C)C(N)=O)[nH]c2c1 (centres undefined) | i | -1.7% | 1.28e-08 | -4.5% | i
CCOc1ncccc1C(=O)Nc1cccc(C(=O)Nc2cccc(S(=O)(=O)CCO)c2)c1 | i | 0.3% | 5.6e-09 | 21.9% | i
Cc1oc(-c2ccccc2)nc1CS(=O)CC(=O)N1CCc2ccccc2C1 (centres undefined) | . | 3.1% | . | 21.9% | .
Cc1ccc2nc(SCC(=O)NCc3ccco3)c(C#N)cc2c1 | i | 2.3% | 2.08e-08 | -2.2% | i
O=C(c1ccco1)N1CCN(C(c2ccccc2F)c2nnnn2CC2CCCO2)CC1 (centres undefined) | i | 2.4% | 6.9e-09 | 0.6% | i
Cc1cc(N2CCOCC2)nc(SCC(=O)c2ccccc2)n1 | i | 0.7% | 6.2e-09 | 0.4% | i
O=C(CSc1nnc(-c2ccccc2O)o1)Oc1ccc(OCc2ccccc2)cc1 | i | -1.7% | 1e-09 | 2.4% | i
CC(=O)Nc1ccc(S(=O)(=O)N2CCSC2c2ccc(C)cc2)cc1 (centres undefined) | i | 0.9% | 7.4e-09 | 21.0% | i
COC(=O)c1[nH]c2cccc(C)c2c1NC(=O)CN1CCN(c2ccccc2OC)CC1 | i | 3.0% | 1e-09 | 6.5% | i
CCCN1C(=O)/C(=C2\SC(N3CCCCC3)=NC2=O)c2ccccc21 | i | 1.7% | 3.43e-08 | -63.2%[inhibitor] | i
N=C(N)SCCN | i | -2.6%&-0.2%&-1.7% | 5.53e-08 | ? | i
CCOC(=O)N1CCN(C(=O)CC(C(=O)N2CCc3ccccc32)n2ccnc2)CC1 (centres undefined) | i | -3.2% | 2.36e-08 | 10.6% | i
CCCC(=O)Nc1cc(C)c(NC(=O)C23CC4CC(CC(C4)C2)C3)cn1 | i | -1.7% | 1e-09 | 3.6% | i
CC(C)CCNC(=O)c1cccc(Cl)c1 | i | -1.0% | 2.5e-09 | 9.8% | i
CC(CCc1ccc(O)cc1)N(C)CCc1ccccc1 (centres undefined) | . | -0.2% | . | 11.3%[11.4 µM] | .
O=C(Nc1cccnc1)c1cccnc1 | i | . | 5.02e-08 | . | i
CC1(C)c2ccccc2N2CCC(=O)NC21/C=C/c1ccco1 (centres undefined) | i | 10.8% | 1e-09 | 3.16µM* | i
COC(=O)Cc1cc(=O)n(-c2nc3ccccc3s2)[nH]1 | i | -2.6% | 1.63e-08 | ? | i
CC(C)CN1CCC2(CC1)CCN(C(=O)c1cccn1C)CC2 | i | 1.6% | 1e-09 | 6.7% | i
COc1ccc(NC(=O)CC2C(=O)N(c3ccc(OC)cc3)C(=O)N2CCN2CCN(C)CC2)cc1 (centres undefined) | i | -1.0% | 2.69e-08 | -2.8% | i
COc1ccc(NC(=O)Cn2nnc(C(=O)NCc3ccccc3OC)c2N)cc1Cl | i | -1.5% | 1e-09 | -15.0% | i
CCC(C)NC(=O)CSC1=Nc2ccccc2C2=NC(CC(=O)NCc3ccccc3)C(=O)N12 (centres undefined) | i | 0.4% | 1e-09 | 4.5% | i
CCn1c(Cc2ccccc2)nnc1SCC(=O)Nc1nnc(-c2ccccc2)s1 | i | 0.5% | 6.1e-09 | ? | i
COc1ccc(-c2[nH]nc3c2C(c2ccc(OC(=O)N4CCOCC4)cc2)C(C#N)=C(N)O3)cc1 (centres undefined) | i | 0.1% | 2.78e-08 | 3.1% | i
O=C1c2c(O)ccc([N+](=O)[O-])c2C(=O)c2c([N+](=O)[O-])ccc(O)c21 | . | 1.9% | . | ? | .
CC(C)=CCC/C(C)=C/CC/C(C)=C/CSc1ccccc1C(=O)O | i | 3.1% | 2.6e-09 | . | i
CCCC(=O)C1=C(O)C(C(=O)OC)C(C)(C)CC1=N (centres undefined) | . | 1.8% | . | -3.6% | .
C=CCOC(=O)CCC(=O)Nc1cc(OC)nc(OC)n1 | i | 2.0% | 4.38e-08 | 0.5% | i
Cc1cc(C)nc(SCc2ccc3nonc3c2)n1 | . | -1.2% | . | ? | .
O=C(NC1CCCCC1)NC1(C(=O)NCCCN2CCOCC2)CCCCC1 | i | 1.2% | 2.45e-08 | 0.8% | i
COc1cc2oc(=O)c(Br)c(C)c2c(OC)c1OC | . | -1.0% | . | ? | .

# (continued)
molecule | A488 autofl | AID923 | A647 autofl | TSHR agonist | Resorufin fluor
COc1ccccc1N1CC(O)=C(c2nc3ccccc3s2)C1=N | i | -1.3% | 3.1e-09 | 4.1% | i
O=C(Nc1nc(-c2ccccc2)cs1)C1CCCO1 (centres undefined) | i | -1.3% | 2.3e-08 | 0.8%[11.4 µM] | i
Cc1cc(Nc2ccc3c(c2)OCCO3)n2ncnc2n1 | i | -0.2% | 4.45e-08 | 13.6% | i
COc1ccc(C2/C(=C(/O)c3ccc(F)cc3)C(=O)C(=O)N2CCCN(C)C)cc1 (centres undefined) | . | 1.1% | . | 4.8% | .
Cn1c(SCC(=O)NCc2cccs2)nnc1-c1ccco1 | i | 2.5% | 2.46e-08 | 24.4% | i
O=c1[nH]c(CN2CCN(Cc3ccc4c(c3)OCO4)CC2)nc2sc3c(c12)CCC3 | i | 1.4% | 1e-09 | 1.9% | i
CC1CC(=O)C2=C(C1)Nc1ccccc1N(C(=O)COc1ccccc1)C2c1ccco1 (centres undefined) | i | -1.6% | 6.3e-09 | ? | i
COc1ccc(C(=O)SC2=NCCS2)cc1OC | . | -0.3% | . | 12.3%[11.4 µM] | .

# By substructure, those above containing a Cl atom.
molecule | A488 autofl | AID923 | A647 autofl | TSHR agonist | Resorufin fluor
O=C(c1cc(-c2ccc(Cl)c(Cl)c2)on1)N1CCCC1 | . | -4.7% | . | 2.3% | .
O=C(Nc1ccc(N2CCCCC2)c(Cl)c1)c1cccnc1 | i | -0.3% | 2.33e-08 | -6.7% | i
CC(C)CCNC(=O)c1cccc(Cl)c1 | i | -1.0% | 2.5e-09 | 9.8% | i
COc1ccc(NC(=O)Cn2nnc(C(=O)NCc3ccccc3OC)c2N)cc1Cl | i | -1.5% | 1e-09 | -15.0% | i

# Continued.
molecule | A488 autofl | AID923 | A647 autofl | TSHR agonist | Resorufin fluor
COCc1nnc(NC(=O)CCCOc2ccccc2OC)s1 | i | -1.1% | 1e-09 | 10.3% | i
CCN1C(=O)NC(c2cccnc2)C(C(=O)OC)=C1C (centres undefined) | . | -0.7% | . | 7.9% | .
O=C(c1ccco1)N1CCN(C(=O)C2c3ccccc3Oc3ccccc32)CC1 | i | 0.9% | 1.33e-08 | 12.8% | i
CCn1cc(C(=O)OCC(=O)NCc2ccc3c(c2)OCO3)c(=O)c2ccc(C)nc21 | i | 0.3% | 1.7e-08 | 12.5% | i
O=C(CN1CCN(c2ccc(F)cc2)CC1)Nc1cc(C(F)(F)F)ccc1Cl | . | -0.8% | . | 13.5% | .
Cc1ccc(CN2C(=O)CCC2C(=O)NCCN2CCN(c3cccc(Cl)c3)CC2)cc1 (centres undefined) | i | 0.0% | 1e-09 | 3.3% | i
Cc1cc(Cc2cc(C)c(N)cc2N)c(N)cc1N | i | 13.0%[11.5 µM] | 4.84e-08 | 2.7%[11.4 µM] | i
COc1ccccc1Nc1ncc(C(C)=O)c(C)n1 | i | 0.4% | 8.4e-09 | -1.5% | i
N[C@@H](CSCc1ccccc1)C(=O)O | i | -0.9%[11.5 µM] | 2.3e-09 | 8.1%[11.4 µM] | i
Cc1ccc(-c2nc3ncccc3o2)cc1NC(=O)c1cc2ccccc2o1 | . | 2.1% | . | ? | .
COc1cccc(Nc2nc(-c3sc(N)nc3C)cs2)c1 | i | 4.1% | 1e-09 | . | i
Cc1nnc(SCCn2c(N3CCCCCC3)nc3c2c(=O)[nH]c(=O)n3C)s1 | i | 0.7% | 1.63e-08 | 2.6% | i
COc1ccc(C)cc1NC(=O)C1C2C=CC(C2)C1C(=O)O (centres undefined) | i | -0.6% | 1.54e-08 | 3.9% | i
COc1ccc(CN(CCN2CCOCC2)C(=O)c2c(F)cccc2F)cc1OC | i | -0.1% | 5e-09 | 1.1% | i
CCN(CC)CCCCn1c(-c2ccccc2)nc2c(N(CCOC)CCOC)nc(C)nc21 | . | -0.5% | . | ? | .
CCOC(=O)c1ccc(CNS(=O)(=O)c2c(C)ccc3nsnc23)o1 | i | -0.7% | 5.3e-09 | 3.9% | i
CCN1CCN(C(=O)c2ccc3c(c2)N(Cc2ccc(F)cc2)C(=O)c2ccccc2S3=O)CC1 (centres undefined) | . | 5.1% | . | 12.6% | .

# Source: PubChem

# The list is partial; count on the stated rates, not on these rows.
